Source: PubChem (Broad Institute)
MLL AF4-AF9 inh = inhibitors of AF4 peptide binding to AF9, primary screen, biochemical, AlphaScreen, biotin-AF4 peptide, FLAG-AF9, single point; Protein AF-9 (Homo sapiens), P42568; inhibition, % at 10 µM; 0.47% of 350,000 active; AID 651704, 2012;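 active = every replicate reaching a set inhibition limit, whatever the replicate mean, cut at about 25% in these data; inconclusive = mean inhibition reaches that limit but some replicates miss it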;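 also: 0% = plate neutral control median and 100% = total signal loss; the record names both 10 and 1 µM as test concentration; the first replicate is given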
Target sequence (P42568 whole entry, looked up): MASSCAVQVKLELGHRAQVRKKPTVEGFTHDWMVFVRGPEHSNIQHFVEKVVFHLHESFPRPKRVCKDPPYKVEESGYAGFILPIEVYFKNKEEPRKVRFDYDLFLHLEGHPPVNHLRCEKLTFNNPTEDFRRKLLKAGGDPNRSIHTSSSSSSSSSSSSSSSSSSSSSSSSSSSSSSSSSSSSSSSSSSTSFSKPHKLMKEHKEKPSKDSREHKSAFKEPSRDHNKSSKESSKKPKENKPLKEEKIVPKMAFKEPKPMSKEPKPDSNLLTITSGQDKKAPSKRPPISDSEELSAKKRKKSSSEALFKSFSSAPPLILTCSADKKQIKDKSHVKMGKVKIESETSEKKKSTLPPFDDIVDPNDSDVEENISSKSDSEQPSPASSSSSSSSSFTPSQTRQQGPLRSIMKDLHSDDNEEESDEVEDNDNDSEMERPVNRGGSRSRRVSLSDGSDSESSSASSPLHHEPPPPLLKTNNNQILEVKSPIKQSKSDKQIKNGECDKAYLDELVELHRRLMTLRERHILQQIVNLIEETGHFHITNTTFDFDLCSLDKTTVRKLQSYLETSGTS
ALR H2O2 inh = inhibitors of human ALR sulfhydryl oxidase, primary screen, biochemical, H2O2 detection, HRP-luminol luminescence, single point; FAD-linked sulfhydryl oxidase ALR (Homo sapiens), P55789; purified ALR, DTT oxidation; inhibition, % (test concentration not listed); 3.8% of 290,000 active; AID 485317, 2010;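 active = mean and each replicate at 75% or more; inconclusive = only one of the two met; inactive = neither met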;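 also: stock transfer was 7.5 nL into about 7.5 µL; 0% = neutral wells and 100% = wells with inactivated enzyme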
Target sequence (P55789 whole entry, looked up): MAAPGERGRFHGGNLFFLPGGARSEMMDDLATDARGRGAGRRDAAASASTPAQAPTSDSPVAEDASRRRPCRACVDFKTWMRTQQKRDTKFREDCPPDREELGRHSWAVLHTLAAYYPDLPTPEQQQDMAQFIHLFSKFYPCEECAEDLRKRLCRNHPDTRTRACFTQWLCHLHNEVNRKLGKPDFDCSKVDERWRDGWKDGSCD
T cruzi repl = inhibitors of intracellular T. cruzi growth, primary screen, luminescence, NIH3T3 host cells. 1.4% of 300,000 active. inhibition, % (test concentration not listed). T. cruzi beta-gal in NIH3T3, 90 h;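 active = mean inhibition across valid replicates above about 55%, limit read from the data; inconclusive = mean below that limit but half or more replicates reach it; inactive = mean below it, under half of replicates reach it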;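 also: signal also drops with host cell toxicity which is not excluded here; 0% = plate median of DMSO wells and 100% = zero luminescence signal; higher percent means less beta-gal luminescence so fewer parasites; stock transfer was 50 nL into about 50 µL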
RanGTP-Impb inh = inhibitors of RanGTP-importin-beta interaction, primary screen, biochemical, FRET, CFP-Ran, YFP-importin-beta, homogeneous | cell-free CFP-Ran/YFP-importin-beta FRET ratio | inhibition, % (test concentration not listed) | 1.1% of 300,000 active;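 active = most replicates above 15%; inconclusive = exactly half above 15%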;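 also: 0% = DMSO wells and 100% = Ran loaded with GDP instead of GTP; wells of about 40 µL received 100 nL stock; the first replicate is given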
Ecoli rRNA inh = reduced GFP signal of wild-type E. coli, primary screen, bacterial rRNA inhibitor project, GFP/RFP fluorescence, OD600, single point; E. coli WT GFP vs humanized-ribosome RFP mutants, 24 h; active compounds read low; DMSO median 0, no signal -100; GFP signal change (wild-type ribosome), % (concentration not given with the values); 1.6% of 350,000 active; AID 720706, 2013;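 active = significant combined selectivity score with lowered wild-type GFP, culture density cut under 30%, mutant RFP and density less affected; inactive = any of these conditions unmet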; also: one replicate is shown; some compounds called inactive have numbers as strong as hits
FGF22 binding = binders of human FGF22 protein, primary screen, FGF22 synaptogenesis inhibitor project, biophysical, thermal shift, single point | 1.5% of 340,000 active | AID 651658, 2012 | calls only at 9.99 µM | recombinant FGF22 thermal shift, SYPRO orange fluorescence; percent of sucrose octasulfate shift, DMSO zero;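 active = melting point raised past a set limit in the mean and every replicate; inconclusive = no clear call; three in four hits are not shown here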
Target sequence (Q9HCT0 whole entry, looked up): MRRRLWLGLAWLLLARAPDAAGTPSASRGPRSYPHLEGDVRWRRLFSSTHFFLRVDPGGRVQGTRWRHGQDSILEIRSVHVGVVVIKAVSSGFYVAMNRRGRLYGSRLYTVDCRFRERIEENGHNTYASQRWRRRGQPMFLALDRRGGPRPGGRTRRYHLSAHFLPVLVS
Beta apoptosis = inhibitors of cytokine-induced beta cell apoptosis, primary screen, luminescence; INS-1E cytokine-induced death, ATP luminescence, 48 h; percent of positive-control rescue, neutral wells zero; protection from apoptosis, % (test concentration not listed); 0.8% of 300,000 active; AID 435005, 2010;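 active = all replicates at 75% or more, or half of them and the mean; inconclusive = half reach 75% but not the mean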;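 also: 0% = cytokine-treated negative control wells and 100% = positive control rescue; higher means more ATP so stronger rescue from cytokine killing; wells of about 40 µL received 100 nL stock; the first replicate is given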
Calb FLC = C. albicans growth inhibition with fluconazole, primary screen, CaCi-2 strain, Alamar Blue fluorescence. C. albicans CaCi-2 (fluconazole-resistant clinical isolate) + fluconazole, 48 h. growth inhibition, % (test concentration not listed). 0.57% of 300,000 active. AID 1979, 2009;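 active = most replicates above 75%; inconclusive = exactly half above 75%; inactive = most below 75%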;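 also: all wells also contain fluconazole at 8 µg/ml as a sub-toxic cotreatment; 0% = median of DMSO wells and 100% = median of geldanamycin control wells; wells of about 8 µL received 7.5 nL stock; the first replicate is given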
Ecoli rRNA inh OD600 = further read-out of Ecoli rRNA inh, marked with its call; OD600 change, %; measured here: OD600 growth;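 optical density of the mix in the first replicate; 0 = DMSO median and -100 = no signal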
Ecoli rRNA inh RFP = further read-out of Ecoli rRNA inh, marked with its call; RFP signal change, %; measured here: RFP humanized mutant strains;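 first replicate; 0 = DMSO median and -100 = no signal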
* = called active by the depositor; i = inactive; ? = inconclusive; nt = not tested or not shown; & = joins results of further samples. A portion of the library; the hit share may differ from the screen's.

SMILES	MLL AF4-AF9 inh	ALR H2O2 inh	T cruzi repl	RanGTP-Impb inh	Ecoli rRNA inh	Ecoli rRNA inh OD600	Ecoli rRNA inh RFP	FGF22 binding	Beta apoptosis	Calb FLC
Cc1nnc(SCC(=O)Nc2cccc(S(=O)(=O)N3CCCCC3)c2)s1	2.3	-2	nt	nt	nt	nt	nt	i	4	nt
CCN(CC(=O)Nc1cc(Cl)ccc1C)C(=O)CCOc1ccccc1C	-2.9	4	4	0.0	-36	-58	-8.3	nt	-2	8
CC(=O)N1c2ccccc2NC2=C(C(=O)CCC2)C1c1ccco1 (stereo not drawn)	-3.3	-9	-7	1.8	20	18	2.8	i	-5	35
CC1CCc2cc(F)cc3c(O)c(C(=O)NCCN(C)C)c(=O)n1c23 (stereo not drawn)	2.1	nt	9	-0.6	-12	-15	-6.1	i	-2	-1
CCc1cc2cc(C)ccc2nc1SCC(=O)Nc1cc(C)on1	nt	2	-8	0.9	nt	nt	nt	nt	-10	-1
CC(C)(C)c1ccc2c(c1)OC(C(=O)N/N=C\c1ccc[nH]1)CO2 (stereo not drawn)	7.6	-7	13	0.7	-31	-32	-1.9	i	70	1
CCn1c(SCC(=O)NCc2ccco2)nnc1C1CCCC1	-1.0	-2	-1	nt	8	5	-2.9	i	-5	nt
Cc1ccc(-n2nnnc2SCC(=O)Nc2nc(-c3ccc(F)cc3)cs2)cc1C	-9.3	-3	1	-3.3	9	2	0.7	i	1	-1
CC(=O)[C@H]1CCC2C3CC=C4C[C@@H](O)CC[C@]4(C)C3CC[C@@]21C (stereo partly drawn)	6.3	-2	nt	nt	4	8	-1.0	i	-2	nt
O=C(C1CCN(S(=O)(=O)N2CCC3(CC2)OCCO3)CC1)N1CCC(Cc2ccccc2)CC1	-32	-4	25	4.9	-20	-22	-3.4	i	4	3
N/C(=N\O)c1ccncc1	-3.6	25	-13	-1.0	24	22	2.2	nt	-2	-2
CCOc1cc(/C=C/c2ccc3cccc([N+](=O)[O-])c3n2)ccc1O	18	94*	2	-1.5	-38	-52	2.9	i	-8	22
CCC(=O)OC1(C)C(=O)C=C2C=C(c3ccsc3)OC=C2C1=O (stereo not drawn)	nt	-3	4	2.6	nt	nt	nt	nt	-3	3
COc1ccc(NC(=O)c2cccc(N3C(=O)NC4CC3(C)Oc3ccccc34)c2)cc1 (stereo not drawn)	nt	-7	3	0.6	nt	nt	nt	nt	-2	?
O=C(Nc1ccc(N2CCOCC2)cc1)C1CCCCC1	nt	11	-4	3.4	-2	15	-2.2	nt	-6	3
CCCCNC(=O)[C@H]1C[C@H]1[C@@H](O)[C@H](CO)NC(=O)[C@H](COCc1ccccc1)NC(=O)OC(C)(C)C	-4.9	0	-12	-0.1	5	12	8.6	i	-6	10
COC(=O)C/C=C/[C@@H](C)[C@@H](/C=N/O[C@H](C)c1cn([C@@H]2COC[C@H]2O)nn1)NS(=O)(=O)c1ccc(C)cc1	nt	-3	-6	3.8	nt	nt	nt	nt	5	-2
CN(C(=O)COC(=O)CNC(=O)c1ccc(Cl)cc1Cl)c1ccccc1	-2.9	-11	-9	0.5	4	5	2.5	i	3	-6
COc1cccc(N2CC(C(=O)Nc3nnc(SCCN4CCOCC4)s3)CC2=O)c1 (stereo not drawn)	-0.5	47	9	3.7	4	10	3.2	i	0	1
O=C(OC1CCCCC1=O)c1ccc(S(=O)(=O)Nc2ccccc2)cc1 (stereo not drawn)	-1.2	0	3	-0.6	-10	-1	3.4	i	-5	-4
O=S1(=O)CCO[C@H]2Cc3ccccc3[C@H]2N1Cc1cccc(Cl)c1	-6.2	nt	10	-4.4	-50	-68	-26	i	-3	-3
Cn1c(-c2sccc2OCc2ccccc2)n[nH]c1=S	nt	97*	10	-4.8	nt	nt	nt	nt	0	28
Cc1cc(C(=O)Nc2ccc(F)cc2)c2ccccc2n1	-3.2	4	-11	1.7	6	5	-3.3	i	-1	10
Cn1c(=O)n(C)c2cc(NC(=O)CCl)ccc21	nt	-25	22	2.5	nt	nt	nt	nt	-21	24
COc1c(/C=N/NC(N)=S)c(C)nn1-c1ccccc1	-3.4	11	0	2.0	-2	4	2.2	i	3	-4
O=C(c1ccccc1F)N(Cc1ccc2c(c1)OCO2)Cc1cc2cc3c(cc2n2nnnc12)OCO3	nt	-15	28	2.4	nt	nt	nt	nt	1	-13
COCC(C)N1CCC(n2nccc2NC(=O)c2ccc3c(c2)OCO3)CC1 (stereo not drawn)	1.9	-8	16	4.0	10	8	1.0	i	-5	-7
C[C@H](CO)N1C[C@H](C)[C@@H](CN(C)C(=O)Nc2ccccc2)Oc2c(cccc2N(C)C)C1=O	-2.4&-3.9	-3	nt	nt	2&0	3&9	0.0&0.5	i	-12	nt
c1ccc(COc2ccccc2CNC23CC4CC(CC(C4)C2)C3)cc1	0.9	-12	56*	-0.9	-20	-39	-6.0	i	35	95*
O=c1c(C=NCc2cccnc2)c(C(F)(F)F)[nH]n1-c1nc2ccccc2s1	-1.2	99*	-17	6.7	-6	-6	6.8	i	6	11
COc1cccc(NC(=S)NN2CCN(C)CC2)c1	nt	nt	4	-3.0	nt	nt	nt	nt	-2	2
CCN(CC)/C(=N/O)NC(=O)NS(=O)(=O)c1ccc(C)cc1	nt	nt	0	1.4	nt	nt	nt	nt	-8	4
CCc1c(O)nc(SCC(=O)N2CCOCC2)n(-c2ccccc2)c1=O	nt	96*	-12	-0.4	nt	nt	nt	nt	2	-24
CC(C(=O)Nc1ccc([N+](=O)[O-])cc1)N1CCN(C/C=C/c2ccccc2)CC1 (stereo not drawn)	17	-2	17	?	-5	-10	-2.3	i	-5	9
COCCN(C(=O)COC(=O)C1(c2ccccc2)CC1)c1c(N)n(CC(C)C)c(=O)[nH]c1=O	-1.4	0	-2	2.0	4	11	1.2	i	nt	-13
O=C(O)CCCC(=O)Nc1ccc(Br)cc1C(=O)O	nt	nt	-3	10	nt	nt	nt	nt	-1	2
Cc1cc2c3nonc3ccc2n1-c1ccccc1	nt	-24	-16	-0.7	nt	nt	nt	nt	0	3
Oc1cccc(CCC2CCCCN2Cc2cn[nH]c2-c2ccc3c(c2)OCO3)c1 (stereo not drawn)	2.3	20	-16	-0.4	10	9	2.6	i	-5	-11
Cc1cc(Br)cc(Br)c1OCC(=O)NNC(=O)c1ccoc1C	0.0	2	-5	2.8	4	4	-1.6	i	0	12
O=S(=O)(NC1CCCCC1)c1ccc(F)c2ccccc12	nt	-1	-2	2.1	nt	nt	nt	nt	1	-25
COc1cccc(OC)c1C(=O)Nc1nc2ccc(S(C)(=O)=O)cc2s1	nt	-21	-1	-1.7	nt	nt	nt	nt	-6	-6
O=C1CSC(c2cccc(F)c2)N1c1ccccc1F (stereo not drawn)	nt	91*	-18	0.1	nt	nt	nt	nt	0	13
COc1ccc(-c2cn(CC3CCCCC3)nn2)cc1	-3.1	1	-5	6.0	11	18	-0.2	i	-4	-12
Cc1ccc(-c2nc3ccc(NS(=O)(=O)c4ccccc4)cc3[nH]2)o1	5.1	-1	-8	-1.2	-32*	-14*	6.5*	i	nt	-3
CCOc1cc(/C=N/NC(=O)CSc2cccc3cccnc23)ccc1O	0.6	99*	-17	-1.7	-10	1	4.4	i	-4	4
COC(=O)c1[nH]c2cc(OC)ccc2c1N	nt	31	10	3.7	nt	nt	nt	nt	11	3
Cc1c(OCC(N)=O)ccc2c(-c3ccccc3)cc(=O)oc12	-2.3	3	9	-11	2	7	-0.4	i	4	15
CC(C)CCN(CC(=O)NC1CCCC1)C(=O)C(=O)Nc1ccc2c(c1)OCCO2	-0.1	nt	4	3.0	3	5	-2.7	i	6	-17
Cn1cccc1C(=O)C(=O)Nc1ccccc1	nt	-11	1	5.2	nt	nt	nt	nt	-3	-12
CC1CCCCN1S(=O)(=O)c1ccc(C(=O)N2CCOCC2)cc1 (stereo not drawn)	1.4	-7	3	?	5	1	-2.1	i	3	11
CCOc1ccccc1NC(=O)CSc1nccn1-c1ccccc1	nt	-2	-10	-3.0	nt	nt	nt	nt	-16	-14
O=C(NCc1cccc(Cl)c1)C1CCC(=O)N(C2CC2)C1 (stereo not drawn)	0.1	-4	-11	5.5	9	18	2.3	i	-2	0
Cc1ccc(N(CC(=O)NC(C)(C)C)C(=O)CCC(=O)Nc2nccs2)cc1C	0.6	-1	4	-1.8	4	4	5.7	i	nt	-2
COCC(C)n1c(SCC(=O)N2CCCCC2)nc2ccccc2c1=O (stereo not drawn)	nt	-3	6	-2.0	nt	nt	nt	nt	2	4
O=C(O)Cc1ccc(C(=O)c2ccccc2)s1	nt	-6	6	-0.8	nt	nt	nt	nt	-16	5
CCC(CO)Nc1nc(CN2CCCCC2)nc2scc(-c3ccccc3)c12 (stereo not drawn)	4.2	-4	38	-3.8	13	2	4.2	i	15	-4
Cc1c(C(N)=O)sc(N)c1C(=O)OC(C)C	nt	3	-4	2.0	nt	nt	nt	nt	-2	-1
C/C(O)=C(\C#N)c1nnc2n1CCCCC2	nt	-4	-5	-1.9	nt	nt	nt	nt	-4	-14
CCOc1cc(C2NC(=O)NC(C)=C2C(=O)OCC2CCCCC2)ccc1O (stereo not drawn)	3.8	37	3	-3.6	-11	-20	0.4	i	-10	6
COCCn1c(=N)c(C(=O)NCc2ccco2)cc2c(=O)n3cc(C)ccc3nc21	-3.8	4	4	-3.9	10	16	8.6	i	-4	4

Continuation:
SMILES	MLL AF4-AF9 inh	ALR H2O2 inh	T cruzi repl	RanGTP-Impb inh	Ecoli rRNA inh	Ecoli rRNA inh OD600	Ecoli rRNA inh RFP	FGF22 binding	Beta apoptosis	Calb FLC
COc1ccccc1/C=C/C=N/NC(=O)CN1CCN(Cc2ccccc2)CC1	nt	3	13	-0.1	1	-8	2.1	i	nt	-10
Clc1cccc(CNCCCSc2ncccn2)c1	-4.8	-8	38	-5.7	6	7	2.9	i	-8	-16
Cc1ccnc(NC(=O)CCC(=O)N(CC(=O)NC2CCCCC2)Cc2ccccc2)c1	-1.0	-1	5	0.3	-1	-2	-2.9	i	-5	-5
CCO[C@H]1OC(C(N)=O)=C[C@@H](C2CC2)[C@@H]1CCCO	nt	-1	-2	-5.5	nt	nt	nt	nt	-3	-4
CCOC(=O)c1cccc(NC(=O)Cn2cc3c(n2)CCC(C)C3)c1 (stereo not drawn)	-7.2	-12	-7	3.2	-21	-26	-3.1	nt	-12	-3
CN(C)S(=O)(=O)NCC1CCCN(Cc2ccc(-c3ccccc3)cc2)C1 (stereo not drawn)	2.0	nt	49	1.0	-22	-32	41	i	nt	-1
CSCCC(NC(=O)c1ccc([N+](=O)[O-])cc1Cl)C(=O)OC(C)C(=O)NCc1ccco1 (stereo not drawn)	1.9	-9	-4	0.1	4	6	-1.7	i	-1	9
